Source: PubChem (Southern Research Institute)
Mtb H37Rv – Confirmatory growth inhibition assay against Mycobacterium tuberculosis H37Rv, potency (AID 1949); most inactive calls were filed without a number and no value below 0 was filed; one-dose inhibition, % at 10 µg/mL; IC50 in µg/mL for titrated hits; actives 1.6% (n = 100,000);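 active means confirmed in a dose series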;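 further: bacteria grown 7 days with compound before Alamar blue readout; 0% = untreated bacteria and 100% = reference antibiotic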
Active calls of the source: *; i = inactive.

mol | Mtb H37Rv
COc1ccc(CCNC(=O)CSc2ncnc3sc4c(c23)CCC(C)C4)cc1OC (centres undefined) | i
CCN(CC(=O)Nc1cccc(C(C)=O)c1)S(=O)(=O)c1cc(Cl)ccc1Cl | i
Cc1c(CCC(=O)O)c(=O)oc2cc(OCc3ccccc3F)ccc12 | i
CC(C)(O)C#Cc1ccc(C(=O)NC(CSCc2ccccc2)C(=O)O)s1 (centres undefined) | i
CNC(=S)N1CCN(C(c2ccccc2)c2ccccc2)CC1 | i
CCCCC1=N/C(=C\C#N)Sc2nc(C)ccc21 | 12%
COc1ccc(-n2ncc3c(NCc4ccc(F)cc4)ncnc32)cc1 | 4%
COc1ccc(C)cc1NC(=O)CN(c1cccc2ccccc12)S(C)(=O)=O | i
CCCNC(=O)Nc1ccc(F)c(Cl)c1 | i
CCC(Oc1ccc(NC(=O)c2ccc(Cl)cc2)cc1)C(=O)c1ccccc1 (centres undefined) | i
CCOc1ccc(C2CC(=O)C3=C(C2)NC(C)=C(C(=O)OC)C3c2ccc(C)o2)cc1OC (centres undefined) | i
CCC(=O)c1cc(F)c(N2CCN(C(=O)Cc3ccccc3)CC2)cc1C | i

Next section:
mol | Mtb H37Rv
O=C(CCCC(=O)OCC(=O)c1ccc(Cl)cc1)NC1CCCCC1 | i
CCN(C#N)c1nc(N(C)C)nc(N(C)C)n1 | i
COc1ccc(Cl)cc1NC(=O)CSc1nc(C)cc(=O)[nH]1 | i
C=CCN(C(=O)Nc1ccc([N+](=O)[O-])cc1)c1nnc(-c2ccc(Cl)cc2)s1 | 0%
O=C(O)CCn1cc(C=C2C(=O)NC(=S)NC2=O)c(-c2cc3ccccc3oc2=O)n1 | i
CCOc1ccc(C(=O)NN2CCN(C)CC2)cc1 | i
COc1ccc(NCc2ccc(OCc3ccccc3F)cc2)cc1Cl | 1%
Cc1c(NS(=O)(=O)c2ccc3c(c2)OCCO3)cccc1[N+](=O)[O-] | i
Cc1ccc(NC(=O)CSc2nnc(CSCc3ccc(Cl)cc3)n2C)cc1 | i
COc1ccc(OCC(=O)Nc2c(C)ccc3nsnc23)cc1 | i
O=C(NCCNS(=O)(=O)c1ccccc1)c1ccc([N+](=O)[O-])cc1 | i
CCc1nc(SCC(=O)Nc2ccc(C(C)=O)cc2)n[nH]1 | i

(next part)
mol | Mtb H37Rv
Cc1ccc2c(c1)CCCN2C(=O)c1cccs1 | 1%
CCOc1ccc(C(=O)Nc2ccc(N3CCCCC3)c(Cl)c2)cc1 | 3%
Cc1c(NC(=O)CN(c2ccc3c(c2)OCCO3)S(=O)(=O)c2ccccc2)c(=O)n(-c2ccccc2)n1C | i
O=C(COc1ccccc1CNC1CCCC1)NCc1ccccc1 | i
COc1ccc(CSc2cc(C)c3ccccc3n2)cc1Br | i
O=C(Nc1ccc(F)cc1)c1ccc2nc(N3C(=O)c4ccccc4C3=O)sc2c1 | i
O=C(c1ccccc1)c1ccc(N2CCOCC2)c(NC(=O)c2cccs2)c1 | i
CCn1c(SCC(=O)Nc2cc(C)ccc2C)nnc1-c1ccccc1 | i
O=C(CSCc1ccc(Br)cc1)N1CCCC1 | i
CCn1c(SCC(=O)Nc2ccccc2C(C)C)nnc1-c1ccc(Cl)c(Cl)c1 | i
Cc1ccc(C(=O)COC(=O)C(C(C)C)N2C(=O)C3C4C=CC(C4)C3C2=O)cc1C (centres undefined) | i
CCOc1ccc(N(CC(=O)Nc2cccnc2)S(=O)(=O)c2ccc(OC)c(OC)c2)cc1 | i

Structures above that have a thiophene ring, fused or not (4):
mol | Mtb H37Rv
COc1ccc(CCNC(=O)CSc2ncnc3sc4c(c23)CCC(C)C4)cc1OC (centres undefined) | i
CC(C)(O)C#Cc1ccc(C(=O)NC(CSCc2ccccc2)C(=O)O)s1 (centres undefined) | i
Cc1ccc2c(c1)CCCN2C(=O)c1cccs1 | 1%
O=C(c1ccccc1)c1ccc(N2CCOCC2)c(NC(=O)c2cccs2)c1 | i

Going on with the list.
mol | Mtb H37Rv
CCOc1ccc(OCCCNCCOC)cc1 | i
COc1cc(/C=C2/SC(=O)N(C)C2=O)ccc1OCc1cccc(C(=O)O)c1 | 1%
COc1ccccc1NC(=O)N1CCN(C(c2ccccc2)c2ccccc2)CC1 | i
O=S(=O)(c1ccc(Br)s1)N1CCCC1 | i
COC(=O)c1cc(OC)c(OC)cc1NC(=O)CCc1ccc(C)o1 | i
C=CCn1c(SCc2csc(C)n2)nc2scc(-c3ccc(C)o3)c2c1=O | i
Cc1cc(Cl)ccc1NC(=S)N1CCN(CCO)CC1 | i
Cc1cc2ccccc2n2c(SCC(=O)N3CCOCC3)nnc12 | i
O=S(=O)(Nc1cnn(Cc2ccc(Cl)cc2Cl)c1)c1ccc2ccccc2c1 | i
COc1cc2c(cc1OC)C(c1ccccc1OCc1ccccc1)CC(=O)N2 (centres undefined) | i
C=CCOc1c(Cl)cc(CNCc2cccs2)cc1OC | 0%
O=C(NC(=S)Nc1ccccc1C(=O)O)c1ccc(Cl)cc1 | i

Carrying on.
mol | Mtb H37Rv
Cc1[nH]nc(-c2ccc(O)c(C)c2O)c1-c1nc2ccccc2s1 | 1%
c1coc(Cn2c(SCc3nc4ccccc4[nH]3)nnc2-c2ccco2)c1 | i
Cc1onc(-c2ccccc2Cl)c1C(=O)Nc1ccc(S(=O)(=O)NC(C)(C)C)cc1 | i
Clc1ccc(OCCCCCn2ccnc2)c(Cl)c1 | 3.5µg/mL*
O=C(CC1C(=O)N(C2CC2)C(=S)N1CCc1ccc(Cl)cc1Cl)Nc1ccc(F)cc1 (centres undefined) | i
COc1ccc(N/C(=N\S(=O)(=O)c2ccccc2)C(F)(F)F)cc1 | i
C=CCc1cc(Cl)ccc1OCCCNCCCOC | 5%
CN1CCN(C(=S)NC(=O)c2ccccc2I)CC1 | i
CC1NC(C(=O)O)Cc2c1[nH]c1ccccc21 (centres undefined) | 1%
Cc1cc(C)cc(NC(=O)CC2Sc3ccccc3NC2=O)c1 (centres undefined) | i
CCCCC(=O)Nc1ccc(C(=O)Nc2ccc3c(c2)OCCO3)cc1 | 2%
CCOC(=O)C1CCN(C(=O)CN(c2ccc(OCC)cc2)S(=O)(=O)c2ccc(C)cc2)CC1 | i

Continuation.
mol | Mtb H37Rv
Cn1nnc2cc(C(=O)NC3CCCCC3)ccc21 | i
O=C(Nc1cccc(OC(=O)c2ccc(Br)c(S(=O)(=O)N3CCCCC3)c2)c1)c1ccccc1 | i
COC(=O)C(Cc1ccc(O)cc1)NC(=O)C(C)Oc1ccccc1 (centres undefined) | i
c1ccc(-c2nnc(SCc3nc4ccccc4[nH]3)n2C2CCCCC2)cc1 | i
CC1(C)Cc2nc3[nH]nc(NC(=S)NC(=O)c4ccccc4)c3cc2CO1 | i
COc1ccccc1C(CCNCc1ccco1)c1ccc(OC(C)C)cc1 (centres undefined) | 5%
CCNS(=O)(=O)c1cc(OC)c(OC)cc1Br | i
CCOc1ccc(N(CC(=O)Nc2ccc(F)cc2F)S(=O)(=O)c2ccc(Cl)cc2)cc1 | 1%
Cc1ccnc(NC(c2ccc3ccc(C)nc3c2O)c2c(F)cccc2Cl)c1 (centres undefined) | i
Cc1nc(-c2ccccc2O)n(CCN2CCCCC2)n1 | 1%
CCN(CC)S(=O)(=O)c1ccc(C(=O)NCCC23CC4CC(CC(C4)C2)C3)cc1 | 32%
O=C(Nc1cccc(Cl)c1)c1cc([N+](=O)[O-])ccc1NCc1ccco1 | i

Copied from the listing, 3 compounds:
mol | Mtb H37Rv
COc1ccc(NCc2ccc(OCc3ccccc3F)cc2)cc1Cl | 1%
Cc1c(NS(=O)(=O)c2ccc3c(c2)OCCO3)cccc1[N+](=O)[O-] | i
Cc1ccc(NC(=O)CSc2nnc(CSCc3ccc(Cl)cc3)n2C)cc1 | i

Continuation.
mol | Mtb H37Rv
CC(C)(C)c1cn2c3ccccc3n(CCN3CCOCC3)c2n1 | i
CN1CCCC(OC(=O)Cc2ccc(Cl)cc2)C1 (centres undefined) | i
Cc1cc(C)n2c(SCc3ccc(C(=O)c4ccc(F)cc4)cc3)nnc2n1 | i
N#Cc1ccccc1Sc1ccccc1C(=O)Nc1nccs1 | 0%
CC(C)(C)NS(=O)(=O)c1ccc(NC(=O)CCCOc2ccccc2)cc1 | 6%
COc1ccc(C2/C(=C(\O)c3ccc(F)cc3)C(=O)C(=O)N2CCCCCC(=O)O)cc1OC (centres undefined) | i
Cc1cc(O)c(-c2n[nH]c3c2C(c2ccc(Cl)cc2)N(Cc2cccnc2)C3=O)cc1C (centres undefined) | i
c1ccc2sc(Nc3nc4ccccc4s3)nc2c1 | 32%
Cc1ccc(NC(=S)NCC(C)C)c(C)c1 | i
COC(=O)c1cc(OC)c(OC)cc1NC(=O)Cn1c(-c2nonc2N)nc2ccccc21 | i
CCOc1ccc2nc(Nc3nc(C)c(CC)c(=O)[nH]3)nc(C)c2c1 | i
COc1ccc(NC(=O)CC2C(=O)N(C)C(=S)N2CCc2ccccc2F)cc1 (centres undefined) | i

Next section
mol | Mtb H37Rv
CCOc1ccc(CN2CCC(N3CC(C)CC(C)C3)CC2)cc1 (centres undefined) | i
CC1(C)Cc2ccccc2-c2nc3n(c(=O)c21)CC(C#N)S3 (centres undefined) | i
O=C(Nc1nccs1)c1ccc(COc2ccccc2)o1 | i
Cc1cccc(-n2c(SCc3ccc([N+](=O)[O-])cc3)nnc2-c2ccncc2)c1 | i
Cc1ccc(Cl)cc1N1CCN(CC(O)COCc2ccccc2)CC1 (centres undefined) | 14%
Cn1c(SCc2ccc(-c3ccc([N+](=O)[O-])cc3)cc2)nnc1-c1ccccc1 | i
NC(=O)c1c(NC(=O)C2CCCO2)sc2c1CCC2 (centres undefined) | i
Cc1ccc(C(=O)NCc2ccc(F)cc2)cc1Cl | i
O=C(O)CC(Cc1ccccc1)c1ccc2c(c1)OCO2 (centres undefined) | i
Cc1cc(C)cc(CSCC(=O)Nc2ccccc2C(=O)NCC(C)C)c1 | i
O=C(Nc1ccccc1)c1ccc(I)o1 | i
COc1ccc(CCNC(=O)NC(C)(C)C)cc1 | i

More entries follow.
mol | Mtb H37Rv
O=C(CSCc1c(Cl)cccc1Cl)NC1CCCC1 | i
CCN(Cc1ccccc1)C(=O)CCC1CCCCC1 | 2%
Cc1ccc(S(=O)(=O)N2CC(C)OC(C)C2)c(C)c1C (centres undefined) | 5%
CCOCCC(=O)N1CCN(c2ccccc2)CC1 | i
O=C(Cn1ccccc1=S)c1ccccc1 | i
COC(=O)C1=C(C)NC2=C(C(=O)CC(c3ccco3)C2)C1c1coc2ccc(Cl)cc2c1=O (centres undefined) | i
O=C(NCCCCc1ccccc1)c1c(Cl)cccc1Cl | 4%
COc1cc(/C=C(/C#N)C(=O)Nc2ccc(O)cc2)cc([N+](=O)[O-])c1O | i
COc1ccc(NC(=O)c2ccc(SC)cc2OC)cc1OC | i
Cc1cc(Cl)ccc1OCCCC(=O)NO | i
CCOc1ccc(-n2c(SCC(=O)Nc3ccc(Cl)cc3Cl)nnc2-c2cccnc2)cc1 | 17%
O=[N+]([O-])c1ccccc1S(=O)(=O)N1CCN(c2ccnc3cc(Cl)ccc23)CC1 | i

The list goes on, overlapping the part above by 2 compounds.
mol | Mtb H37Rv
CCOc1ccc(-n2c(SCC(=O)Nc3ccc(Cl)cc3Cl)nnc2-c2cccnc2)cc1 | 17%
O=[N+]([O-])c1ccccc1S(=O)(=O)N1CCN(c2ccnc3cc(Cl)ccc23)CC1 | i
CCOC(=O)C1CCCN(C(=O)c2sc3ccccc3c2Cl)C1 (centres undefined) | 4%
CSc1nc2ccc(NC(=O)CCc3ccccc3)cc2s1 | 45%
CCC(Sc1nc(C)cc(C)n1)C(=O)Nc1ccc(-c2nc3ccc(C)cc3s2)cc1 (centres undefined) | 13%
COc1ccc(C(=O)NC(=S)Nc2cccc(C(=O)O)c2C)cc1Cl | i
CCSc1nnc(CN2CCOCC2)n1-c1ccccc1 | 3%
CCC1(C)Cc2c(c(=O)n(-c3ccccc3)c3ncnc(N)c23)CO1 (centres undefined) | i
COc1ccc(NC(=O)CN(c2cc(OC)ccc2OC)S(=O)(=O)c2ccc(OC)c(OC)c2)cc1 | i
CC1CCN(CCNC(=S)Nc2ccc(F)cc2)CC1 | 1.5µg/mL*
COCCN1C(=O)/C(=C/c2cccc(Br)c2)SC1=S | i
Cc1ccccc1NC(=O)c1ccc(NC(=O)C2COc3ccccc3O2)cc1 (centres undefined) | 19%
NC(=O)C1CCN(C(=O)C2CCCCC2)CC1 | i
O=c1nc(N2CCCCC2)nc(Nc2ccc([N+](=O)[O-])cc2)[nH]1 | i

Remaining list, next part
mol | Mtb H37Rv
Clc1cccc(-c2nnc3ccc4ccccc4n23)c1Cl | 8%
O=C(O)CCCn1c(-c2ccc(Br)cc2)nc(=S)c2c1CCCC2 | i
CSc1ccc(NC(=O)c2sc3nc4c(c(-c5cccnc5)c3c2N)CCCC4)cc1 | 0%
O=C(CSc1ccccc1)Nc1ccc2c(c1)OCCO2 | i
Cc1ccc(C(=O)N2CCN(c3ccc(NC(=O)COc4c(C)cc(C)cc4Br)cc3)CC2)cc1 | 1.3µg/mL*
COC(=O)NC1(C(F)(F)F)C(=O)NC(C)=C1C(=O)OC (centres undefined) | i
O=C(NC(=S)Nc1ccc(Cl)cc1)c1ccccc1 | i
CCOC(=O)N1CCC(n2c(SCC(=O)Nc3nccs3)nc3ccccc3c2=O)CC1 | i
COc1ccc(-c2nnc(NC(=O)c3ccoc3C)s2)cc1 | 1%
COc1ccc(-c2nn(C)c(=O)c3ccccc23)cc1CNC(=O)c1ccco1 | 1%
CCCC(C)NC(=O)C1CCN(S(=O)(=O)c2ccc(Br)cc2)CC1 (centres undefined) | i
CC(C)(C)c1[nH]nc2c1C(c1ccoc1)C(C#N)=C(N)O2 (centres undefined) | i
COc1ccc(CCCC(=O)Nc2ccc(I)cc2C(C)C)c(C)c1 | 1%

Not all compounds are listed; the hit share may differ from the screen's.
